Bioassay records: PubChem, Broad Institute
AF4-AF9 inh – inhibitors of human MLL-AF4/AF9 interaction. P42568. AlphaScreen, biotin-AF4 peptide binding to FLAG-AF9. inhibition, % at 10 µM. actives 0.47% (n = 350,000);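 active = every replicate reaching a set inhibition limit, whatever the replicate mean, cut at about 25% in these data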;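 also: 0% = plate neutral control median and 100% = total signal loss; the record names both 10 and 1 µM as test concentration; the first replicate is given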
Target sequence (P42568 whole entry, looked up): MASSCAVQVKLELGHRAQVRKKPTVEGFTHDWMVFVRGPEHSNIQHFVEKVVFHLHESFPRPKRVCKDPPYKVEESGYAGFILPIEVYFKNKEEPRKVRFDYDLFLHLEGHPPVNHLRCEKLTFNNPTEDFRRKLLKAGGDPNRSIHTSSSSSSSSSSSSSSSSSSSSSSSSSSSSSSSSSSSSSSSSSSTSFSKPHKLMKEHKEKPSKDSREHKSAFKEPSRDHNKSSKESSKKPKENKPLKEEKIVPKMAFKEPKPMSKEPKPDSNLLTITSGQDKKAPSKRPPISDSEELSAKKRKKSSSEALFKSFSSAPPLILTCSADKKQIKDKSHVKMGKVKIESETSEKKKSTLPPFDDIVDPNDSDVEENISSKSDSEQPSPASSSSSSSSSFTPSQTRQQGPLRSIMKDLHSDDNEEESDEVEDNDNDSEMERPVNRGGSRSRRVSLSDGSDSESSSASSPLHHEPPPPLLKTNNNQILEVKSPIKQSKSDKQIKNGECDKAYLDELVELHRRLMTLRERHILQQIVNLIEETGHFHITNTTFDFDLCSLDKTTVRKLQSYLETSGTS
rRNA inh HTS – inhibitors of bacterial rRNA selective over humanized ribosomes; GFP signal change (wild-type ribosome), % (no concentration beside the values); E. coli WT GFP vs humanized-ribosome RFP mutants, fluorescence, 24 h; stronger effect = lower value; DMSO median 0, no signal -100; actives 1.6% (n = 350,000); AID 720706;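 active = significant combined selectivity score with lowered wild-type GFP, culture density cut under 30%, mutant RFP and density less affected; inactive = any of these conditions unmet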; also: one replicate is shown; some compounds called inactive have numbers as strong as hits
FGF22 binding – shifts melting point of recombinant human FGF22; Q9HCT0; recombinant FGF22 thermal shift, SYPRO orange fluorescence; percent of sucrose octasulfate shift, DMSO zero; calls only at 9.99 µM; actives 1.5% (n = 340,000); AID 651658;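 active = melting point raised past a set limit in the mean and every replicate; three in four hits are not shown here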
Target sequence (Q9HCT0 whole entry, looked up): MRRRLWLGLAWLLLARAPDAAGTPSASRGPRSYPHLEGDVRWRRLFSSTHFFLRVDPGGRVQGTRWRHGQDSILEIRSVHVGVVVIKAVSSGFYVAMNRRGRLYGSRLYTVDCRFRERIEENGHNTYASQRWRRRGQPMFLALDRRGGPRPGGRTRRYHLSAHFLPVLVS
rRNA inh HTS OD600 – further read-out of rRNA inh HTS, marked with its call; OD600 change, %; measured here: OD600 growth;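 optical density of the mix in the first replicate; 0 = DMSO median and -100 = no signal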
rRNA inh HTS RFP – also measured in rRNA inh HTS; calls as there; RFP signal change, %; measured here: RFP humanized mutant strains;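 first replicate; 0 = DMSO median and -100 = no signal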
The depositor's hits bear a star; & = joins results of further samples. Only part of the results is shown; rates above refer to the full screens.

`CC(C)NC(=O)N[C@H]1CC[C@H](CCNS(=O)(=O)c2ccc(Cl)cc2)O[C@@H]1CO` gave AF4-AF9 inh -1.2, rRNA inh HTS -4, FGF22 binding inactive, rRNA inh HTS OD600 -3 and rRNA inh HTS RFP 0.0.
`C[C@@H]1CN([C@H](C)CO)C(=O)c2cc(NC(=O)C3CCCCC3)ccc2O[C@H]1CN(C)S(=O)(=O)c1ccccc1` gave AF4-AF9 inh -1.5, rRNA inh HTS -2, FGF22 binding inactive, rRNA inh HTS OD600 1 and rRNA inh HTS RFP -2.1.
CCOC(=O)N1CCN(C(=O)C[C@H]2C[C@@]3(C(=O)OC)C(=C[C@H](COCc4ccccc4)O[C@@H]3C)N(CCC3=CCCCC3)C2=O)CC1 was read as AF4-AF9 inh -3.6, rRNA inh HTS 9, FGF22 binding inactive, rRNA inh HTS OD600 -3 and rRNA inh HTS RFP 1.8.
O=C1CC(c2ccccc2)=NN1c1ccccc1 was read as AF4-AF9 inh 2.2, rRNA inh HTS -12, FGF22 binding inactive, rRNA inh HTS OD600 -4 and rRNA inh HTS RFP 2.0.
`COc1ccc(NC(=O)Nc2cccc3c2O[C@H](CN(C)C(=O)Nc2ccc(OC)cc2)[C@H](C)CN([C@@H](C)CO)C3=O)cc1` gave AF4-AF9 inh 3.5, rRNA inh HTS -1, FGF22 binding inactive, rRNA inh HTS OD600 -4 and rRNA inh HTS RFP 0.7.
CC(=O)NCCc1ccc(C(=O)COC(=O)c2cccs2)cc1 was read as AF4-AF9 inh -4.0, rRNA inh HTS 2, FGF22 binding inactive, rRNA inh HTS OD600 9 and rRNA inh HTS RFP -4.4.
For C[C@H](CO)N1C[C@H](C)[C@@H](CN(C)C(=O)c2ccccc2)OCCCC[C@H](C)Oc2ccc(NC(=O)NC3CCCCC3)cc2C1=O the results were AF4-AF9 inh 0.1, rRNA inh HTS -4, FGF22 binding inactive, rRNA inh HTS OD600 -9 and rRNA inh HTS RFP -0.7.
For C[C@@H]1CCCCO[C@@H](CN(C)C)[C@H](C)CN([C@H](C)CO)C(=O)c2cc(NC(=O)Nc3cccc4ccccc34)ccc2O1 the results were AF4-AF9 inh 11, rRNA inh HTS -1, FGF22 binding inactive, rRNA inh HTS OD600 -1 and rRNA inh HTS RFP 3.3.
`CN(C(=O)c1cccc(NC(=O)Cc2ccc(NC(=O)C3CCN(C(=O)c4ccccc4)CC3)cc2)c1)C1CCCCC1` gave AF4-AF9 inh -2.1, rRNA inh HTS -3, rRNA inh HTS OD600 -2 and rRNA inh HTS RFP 2.1.
CCN1[C@@H]2c3ccc(-c4ccccc4F)c(=O)n3C[C@H]1[C@H](CO)[C@H]2C(=O)NCc1ccc(F)cc1 was read as AF4-AF9 inh -1.5, rRNA inh HTS -2, FGF22 binding inactive, rRNA inh HTS OD600 -1 and rRNA inh HTS RFP -0.8.
C[C@@H]1CN([C@H](C)CO)C(=O)c2cccc(NS(=O)(=O)c3ccc(Cl)cc3)c2O[C@@H]1CN(C)C(=O)Nc1ccc(C(F)(F)F)cc1 was read as AF4-AF9 inh -1.6, rRNA inh HTS -8, FGF22 binding inactive, rRNA inh HTS OD600 -11 and rRNA inh HTS RFP -1.9.
`O=C(NCCN1CCC(n2c(=O)[nH]c3ccccc32)CC1)c1c(F)cccc1F` gave AF4-AF9 inh 0.7, rRNA inh HTS -1, FGF22 binding inactive, rRNA inh HTS OD600 6 and rRNA inh HTS RFP -1.5.
`CN1C(=O)c2cc(NS(=O)(=O)c3cccc(F)c3)ccc2OC[C@@H]2O[C@@H](CC(=O)O)CC[C@@H]21` gave AF4-AF9 inh -1.3, rRNA inh HTS 0, FGF22 binding inactive, rRNA inh HTS OD600 2 and rRNA inh HTS RFP 0.9.
`C[C@H]1CN([C@@H](C)CO)C(=O)Cc2cc(NS(=O)(=O)c3cccs3)ccc2O[C@H]1CN(C)Cc1ccc(C(F)(F)F)cc1` gave AF4-AF9 inh -2.3, rRNA inh HTS 2, FGF22 binding inactive, rRNA inh HTS OD600 -8 and rRNA inh HTS RFP -1.3.
`C[C@H](CO)N1C[C@H](C)[C@@H](CN(C)S(=O)(=O)c2ccc(F)cc2)Oc2ccc(NC(=O)CCCCCC(=O)Nc3ccccc3N)cc2CC1=O` gave AF4-AF9 inh -0.4, rRNA inh HTS 0, FGF22 binding inactive, rRNA inh HTS OD600 12 and rRNA inh HTS RFP -0.6.
CC(C)CC#Cc1ccc2c(c1)O[C@H](CN(C)C(=O)c1ccncc1)[C@H](C)CN([C@H](C)CO)S2(=O)=O was read as AF4-AF9 inh 1.8, rRNA inh HTS -5, FGF22 binding inactive, rRNA inh HTS OD600 -12 and rRNA inh HTS RFP -0.8.
`Cc1ccc(-c2ccc3c(c2)O[C@@H](CN(C)Cc2cccc(C(=O)O)c2)[C@@H](C)CN([C@H](C)CO)S3(=O)=O)cc1` gave AF4-AF9 inh 0.4, rRNA inh HTS -5, FGF22 binding inactive, rRNA inh HTS OD600 -11 and rRNA inh HTS RFP -2.8.
CCCc1c(-c2ccccc2OC)ncn1CCc1ccccc1OC was read as AF4-AF9 inh 18, rRNA inh HTS -53, FGF22 binding inactive, rRNA inh HTS OD600 -79 and rRNA inh HTS RFP -14.
`C[C@@H]1CN([C@@H](C)CO)S(=O)(=O)c2ccc(Br)cc2O[C@H]1CN(C)C(=O)c1cccc(F)c1` gave AF4-AF9 inh -1.6&2.5, rRNA inh HTS -1&0, FGF22 binding inactive, rRNA inh HTS OD600 -8&-13 and rRNA inh HTS RFP 2.1&-0.8.
Screening C[C@H]1CN([C@@H](C)CO)C(=O)c2cc(NC(=O)C3CC3)ccc2O[C@@H]1CN(C)Cc1ccc(-c2ccccc2)cc1 returned AF4-AF9 inh 3.0, rRNA inh HTS -3, FGF22 binding inactive, rRNA inh HTS OD600 8 and rRNA inh HTS RFP 0.7.

The closing four compounds of the section above are carried over, then new ones follow.
`Cc1ccc(-c2ccc3c(c2)O[C@@H](CN(C)Cc2cccc(C(=O)O)c2)[C@@H](C)CN([C@H](C)CO)S3(=O)=O)cc1` gave AF4-AF9 inh 0.4, rRNA inh HTS -5, FGF22 binding inactive, rRNA inh HTS OD600 -11 and rRNA inh HTS RFP -2.8.
CCCc1c(-c2ccccc2OC)ncn1CCc1ccccc1OC was read as AF4-AF9 inh 18, rRNA inh HTS -53, FGF22 binding inactive, rRNA inh HTS OD600 -79 and rRNA inh HTS RFP -14.
`C[C@@H]1CN([C@@H](C)CO)S(=O)(=O)c2ccc(Br)cc2O[C@H]1CN(C)C(=O)c1cccc(F)c1` gave AF4-AF9 inh -1.6&2.5, rRNA inh HTS -1&0, FGF22 binding inactive, rRNA inh HTS OD600 -8&-13 and rRNA inh HTS RFP 2.1&-0.8.
Screening C[C@H]1CN([C@@H](C)CO)C(=O)c2cc(NC(=O)C3CC3)ccc2O[C@@H]1CN(C)Cc1ccc(-c2ccccc2)cc1 returned AF4-AF9 inh 3.0, rRNA inh HTS -3, FGF22 binding inactive, rRNA inh HTS OD600 8 and rRNA inh HTS RFP 0.7.
`Cc1ccc(C)c(SCC(=O)NC2CCS(=O)(=O)C2)c1` (stereo not given) gave AF4-AF9 inh -0.7, rRNA inh HTS 16, FGF22 binding inactive, rRNA inh HTS OD600 12 and rRNA inh HTS RFP 1.7.
Screening CN1CCCCN2[C@H](C1)[C@H](c1ccc(-c3cccnc3)cc1)[C@@H]2CO returned AF4-AF9 inh 5.9, rRNA inh HTS 8, FGF22 binding inactive, rRNA inh HTS OD600 4 and rRNA inh HTS RFP -2.8.
Screening CN1c2ccc(Br)cc2[C@@H]2[C@@H](CCN2C(=O)Nc2ccc(F)cc2)[C@H]1CO returned AF4-AF9 inh -8.2, rRNA inh HTS -9, FGF22 binding inactive, rRNA inh HTS OD600 -13 and rRNA inh HTS RFP 3.2.
`CN1c2ccc(Br)cc2[C@@H]2[C@@H](CCN2C(=O)C2CCOCC2)[C@H]1CO` gave AF4-AF9 inh -3.9, rRNA inh HTS 4, FGF22 binding inactive, rRNA inh HTS OD600 9 and rRNA inh HTS RFP 0.4.
Cc1noc(C)c1S(=O)(=O)N(C)C[C@@H]1OCCCC[C@@H](C)Oc2ccc(NC(=O)NC(C)C)cc2C(=O)N([C@@H](C)CO)C[C@H]1C was read as AF4-AF9 inh -0.6, rRNA inh HTS 2, FGF22 binding inactive, rRNA inh HTS OD600 2 and rRNA inh HTS RFP -0.3.
For CC1(CCc2ccccc2)NC(=O)NC1=O (stereo not given) the results were AF4-AF9 inh 5.7, rRNA inh HTS 8, FGF22 binding inactive, rRNA inh HTS OD600 3 and rRNA inh HTS RFP 0.4.
Screening COc1ccc2c3c(n(C)c2c1)[C@H](CO)N(Cc1ccccc1)CC31CCN(S(=O)(=O)c2ccc(C)cc2)CC1 returned AF4-AF9 inh -17, rRNA inh HTS -55, FGF22 binding inactive, rRNA inh HTS OD600 -74 and rRNA inh HTS RFP -19.
Screening O=C(O)c1cccc(-c2csc(C(O)c3ccccc3)n2)c1 (stereo not given) returned AF4-AF9 inh -2.3, rRNA inh HTS 0, FGF22 binding inactive, rRNA inh HTS OD600 -19 and rRNA inh HTS RFP -5.6.
Screening O=C(N[C@H]1CC[C@@H](CC(=O)N2CCCCC2)O[C@H]1CO)c1ccccn1 returned AF4-AF9 inh 0.2, rRNA inh HTS 1, FGF22 binding inactive, rRNA inh HTS OD600 0 and rRNA inh HTS RFP -1.4.
For O=C(Nc1ccccc1)N1CCCCN2[C@@H](CO)[C@H](c3ccc(-c4ccccc4)cc3)[C@@H]2C1 the results were AF4-AF9 inh 9.0, rRNA inh HTS -55, FGF22 binding inactive, rRNA inh HTS OD600 -75 and rRNA inh HTS RFP -11.
For C[C@H]1CN([C@@H](C)CO)S(=O)(=O)c2ccc(-c3ccncc3)cc2O[C@H]1CN(C)Cc1ccccn1 the results were AF4-AF9 inh -3.5, rRNA inh HTS -8, FGF22 binding inactive, rRNA inh HTS OD600 -7 and rRNA inh HTS RFP -1.1.
Screening CC(=O)c1cccc(-c2ccnc3c2CC(C(=O)NC(C)C)O3)c1 (stereo not given) returned AF4-AF9 inh -3.6, rRNA inh HTS 0, FGF22 binding inactive, rRNA inh HTS OD600 0 and rRNA inh HTS RFP -3.6.
Screening CN1CCN(C(=O)C[C@H]2CC[C@@H](NC(=O)c3ccc4c(c3)OCO4)[C@@H](CO)O2)CC1 returned AF4-AF9 inh 1.5, rRNA inh HTS 2, FGF22 binding inactive, rRNA inh HTS OD600 5 and rRNA inh HTS RFP 1.0.
Screening C[C@@H]1CN([C@H](C)CO)C(=O)c2cccc(NS(=O)(=O)c3ccc(Cl)cc3)c2O[C@@H]1CN(C)Cc1ccc(C(=O)O)cc1 returned AF4-AF9 inh 9.9, rRNA inh HTS 2, FGF22 binding inactive, rRNA inh HTS OD600 15 and rRNA inh HTS RFP -2.0.
For C[C@@H]1CN([C@@H](C)CO)C(=O)c2cc(NC(=O)CCCCCC(=O)Nc3ccccc3N)ccc2O[C@H]1CN(C)C(=O)Nc1ccc2c(c1)OCO2 the results were AF4-AF9 inh 0.3, rRNA inh HTS -4, FGF22 binding inactive, rRNA inh HTS OD600 8 and rRNA inh HTS RFP -1.0.
Cc1ccccc1S(=O)(=O)NC(=O)C1(C)CCN1C(=O)C1(c2ccccc2)CCCC1 (stereo not given) was read as AF4-AF9 inh 0.5, rRNA inh HTS -6, FGF22 binding inactive, rRNA inh HTS OD600 0 and rRNA inh HTS RFP -0.7.
C[C@@H]1CN([C@H](C)CO)C(=O)c2cc(NC(=O)Nc3cccc4ccccc34)ccc2O[C@@H](C)CCCCO[C@@H]1CN(C)CC1CCCCC1 was read as AF4-AF9 inh 3.8, rRNA inh HTS -2, FGF22 binding inactive, rRNA inh HTS OD600 -6 and rRNA inh HTS RFP 3.8.
For CC(C)CC#Cc1cnc2c(c1)C(=O)N([C@@H](C)CO)C[C@H](C)[C@H](CN(C)C(=O)Nc1cc(F)ccc1F)O2 the results were AF4-AF9 inh -2.4, rRNA inh HTS -2, FGF22 binding inactive, rRNA inh HTS OD600 0 and rRNA inh HTS RFP 2.9.
`COC(=O)[C@@]1(C(C)C)N=C(c2cc(OC)c(OC)c(OC)c2)[C@]2(O1)C(=O)N(C)c1ccc(Cl)cc12` gave AF4-AF9 inh 0.4, rRNA inh HTS -2, FGF22 binding inactive, rRNA inh HTS OD600 0 and rRNA inh HTS RFP -0.9.
For C[C@H]1CN([C@@H](C)CO)C(=O)Cc2cc(NC(=O)Cn3cnnn3)ccc2O[C@H]1CN(C)Cc1ccc(-c2ccccc2)cc1 the results were AF4-AF9 inh 2.9, rRNA inh HTS -3, FGF22 binding inactive, rRNA inh HTS OD600 -1 and rRNA inh HTS RFP 5.0.
`CO[C@@H]1CN(C)C(=O)c2cc(NC(=O)C3CCCCC3)ccc2OC[C@H](C)N(C)C[C@@H]1C` gave AF4-AF9 inh -1.7, rRNA inh HTS 0, FGF22 binding inactive, rRNA inh HTS OD600 0 and rRNA inh HTS RFP 0.4.
